GIV-Gai inh – GIV-Galpha-i interaction inhibition; 0.42% of 210,000 active; P08753; Galpha-i3/FITC-GIV peptide fluorescence polarization, 90 min; hits give low values; scaled: aluminum fluoride 0%, vehicle 100%; percent of control (FP), % (concentration not given with the values);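 active = replicate mean at 85% of control or lower, very high polarization wells dropped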;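 also: wells of about 15 µL received 100 nL stock; the first replicate is given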
Target sequence (P08753 whole entry, looked up): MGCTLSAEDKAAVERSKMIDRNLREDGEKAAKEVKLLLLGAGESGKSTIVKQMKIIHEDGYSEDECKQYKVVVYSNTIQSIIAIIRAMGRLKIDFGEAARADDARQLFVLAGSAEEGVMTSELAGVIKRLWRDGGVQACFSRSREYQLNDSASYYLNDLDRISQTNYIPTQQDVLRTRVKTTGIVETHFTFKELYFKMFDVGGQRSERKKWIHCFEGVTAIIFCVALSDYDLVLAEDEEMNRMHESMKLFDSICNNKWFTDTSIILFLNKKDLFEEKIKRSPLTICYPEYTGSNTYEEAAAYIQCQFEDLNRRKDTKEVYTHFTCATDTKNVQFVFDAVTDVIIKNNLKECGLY
The depositor's hits bear a star. An excerpt; count on the stated rates, not on these rows.

`O=C(NCc1csc(-c2ccccc2)n1)[C@H]1CCCN1C(=O)Nc1cccc(F)c1` gave GIV-Gai inh 103.
`CCOC(=O)c1cnc2ccccc2c1Nc1ccccc1C` gave GIV-Gai inh 103.
COC(=O)c1cc(N2C(=O)C3C4c5ccccc5C(c5ccccc54)C3C2=O)ccc1Cl (centres undefined) was read as GIV-Gai inh 104.
`CN1CCN(c2c(F)c(N)c3c(=O)c(C(=O)O)cn(-c4ccc(F)c(F)c4)c3c2F)CC1` gave GIV-Gai inh 109.
COc1cc(-c2nnc3ccc4ccccc4n23)cc(OC)c1OC was read as GIV-Gai inh 104.
For Cc1cc(-c2cc(S(=O)(=O)N3CCOCC3)c(C)o2)n[nH]1 the results were GIV-Gai inh 103.
`CN(C)CCNC(=O)c1ncoc1-c1ccccc1C(=O)N1CCCC1` gave GIV-Gai inh 98.
For CC(=O)N(CN1C(=O)C2C3c4ccccc4C(c4ccccc43)C2C1=O)c1ccc(Cl)c(Cl)c1 (centres undefined) the results were GIV-Gai inh 119.
For CCCCCCCCC(=O)OC1CCC2(C)C(=CCC3C2CCC2(C)C(C(C)CCCC(C)C)CCC32)C1 (centres undefined) the results were GIV-Gai inh 108.
`CCc1ccc(NC(=O)C(=O)NCCN2CCN(Cc3ccc(C)cc3)CC2)cc1` gave GIV-Gai inh 112.
For O=C(C1CCN(S(=O)(=O)c2cc(-c3noc(C4CC4)n3)cs2)CC1)N1CCOCC1 the results were GIV-Gai inh 110.
Screening CC(C)(C)C1=CC2(C=C(C(C)(C)C)C1=O)Nc1cc(Cl)ccc1OC2c1ccccc1 (centres undefined) returned GIV-Gai inh 106.
Screening Cc1ccc(C2CCCCCN2S(=O)(=O)c2c(C)noc2C)s1 (centres undefined) returned GIV-Gai inh 100.
Screening CN(C)C(=O)c1ccc2c(c1)nc(CN1CCN(C(=O)CCC3CCCC3)CC1)n2C returned GIV-Gai inh 105.
Screening COCCC(=O)Nc1cnn(-c2ncc(N3CCSCC3)cn2)c1 returned GIV-Gai inh 99.
`CCOc1ccccc1NS(=O)(=O)c1cc(-c2nc(C)c(C)s2)sc1C` gave GIV-Gai inh 99.
Screening Cc1nc(CCNC(=O)[C@H]2CCCN2S(=O)(=O)c2ccc3c(c2)CCCC3)cs1 returned GIV-Gai inh 101.
N#CCSc1nnc(-c2ccccc2)c(-c2ccccc2)n1 was read as GIV-Gai inh 118.
Screening CC(=O)Nc1cnc(N2CCN(c3ccccc3)CC2)c(C(=O)O)c1 returned GIV-Gai inh 105.
`CCc1ccc(NS(=O)(=O)c2cccc3nsnc23)cc1` gave GIV-Gai inh 113.
For C#CCOc1cccc(C2CC(=O)Nc3c2c(C)nn3-c2nncc(-c3ccc(C)cc3)n2)c1 (centres undefined) the results were GIV-Gai inh 108.
For NNC(=O)CN1C(c2ccccc2)=Nc2ccc(Br)cc2C1c1ccccc1 (centres undefined) the results were GIV-Gai inh 111.
CCOc1cc(C2Nc3ccc(Cl)cc3[C@H]3OCCC[C@@H]23)ccc1OC (some centres undefined) was read as GIV-Gai inh 101.
`COc1ccc(Br)cc1/C=C1\N=C(c2ccc([N+](=O)[O-])cc2Cl)OC1=O` gave GIV-Gai inh 116.
CC(C)NC(=O)Cn1cnc2nc(N3CCC(C(=O)NC4CC4)CC3)sc2c1=O was read as GIV-Gai inh 98.
For CCCCNC(=O)c1cc2c(C)nn(-c3ccc(F)cc3)c2s1 the results were GIV-Gai inh 105.
For CC(C)CC(=O)Nc1ccc(S(=O)(=O)N2CCCC2c2nc(-c3ccccc3)no2)cc1 (centres undefined) the results were GIV-Gai inh 99.
O=S(=O)(c1ccc(F)cc1)N1CCOc2ccccc21 was read as GIV-Gai inh 110.
`Cn1nc(-c2ccccc2F)c2cc(C(=O)Oc3ccc(F)cc3)sc21` gave GIV-Gai inh 109.
For CC(C)C(=O)N1CCC2(CC1)NC(=O)c1ccccc1O2 the results were GIV-Gai inh 98.
Cc1ccc(C(=O)N/C(=C\c2ccccc2)C(=O)NCCCn2ccnc2)cc1 was read as GIV-Gai inh 100.
CCCn1c(=O)c(N2CCC(NC(=O)NCC3CCC(C(=O)OCC)CC3)CC2)nc2ccccc21 (centres undefined) was read as GIV-Gai inh 102.
For COc1ccc2c(c1)N(C)/C(=c1/s/c(=C3\SC(=S)N(C4CCCCC4)C3=O)n(C3CCCCC3)c1=O)S2 the results were GIV-Gai inh 103.
Screening Cc1nn(CC(=O)NC(C)(C)C)c(C)c1S(=O)(=O)N1CCC(C(=O)N2CCC(C)CC2)CC1 returned GIV-Gai inh 107.
`CCOC(=O)CSc1nc(Nc2ccc(F)cc2)c2ccccc2n1` gave GIV-Gai inh 105.
For COc1cccc(C2C3CN(C(C)C)CC=C3C(C#N)=C(N)C2(C#N)C#N)c1OC (centres undefined) the results were GIV-Gai inh 132.
Screening CCN(CC)c1ccc(NC(=O)Cn2nc3c4sccc4ncn3c2=O)c(C)c1 returned GIV-Gai inh 99.
Cc1cc(C2C(C#N)=C(N)N(c3cccc(Br)c3)C3=C2C(=O)CCC3)c(C)s1 (centres undefined) was read as GIV-Gai inh 108.
`COc1cc(Cl)c(NS(=O)(=O)c2cc(-c3cc(C(F)(F)F)[nH]n3)sc2C)c(OC)c1` gave GIV-Gai inh 97.
For Cc1csc(-c2cc(S(=O)(=O)N3CCN(CC(C)C)CC3)cn2CC(=O)N2CCCCC2)n1 the results were GIV-Gai inh 97.
For O=c1ccc(-c2ccc3c(c2)OCO3)nn1CCc1nc(-c2ccncc2)no1 the results were GIV-Gai inh 100.
Screening Cc1ccc(N2NC3(CCCCC3)NC2=S)cc1 returned GIV-Gai inh 104.
Cn1nc(COCc2ccccc2F)c2c1CCN(C(=O)c1cccc(F)c1)C2 was read as GIV-Gai inh 108.
`CC1=NN(C(=O)c2ccccc2Br)C(O)(c2cccnc2)C1` (centres undefined) gave GIV-Gai inh 101.
O=C(Nc1cccc(OCc2cc(=O)n3ccccc3n2)c1)Nc1ccccc1Cl was read as GIV-Gai inh 103.
O=C(NCc1ccccc1)c1ccc(Nc2ncc(-c3cccc(F)c3)cn2)cc1 was read as GIV-Gai inh 105.
For COc1ccc(OC)c(/C=C2/SC(=Nc3ccccc3)N(N(C)C)C2=O)c1 the results were GIV-Gai inh 102.
For CCCCSc1ccc2c3c(onc13)-c1ccccc1C2=O the results were GIV-Gai inh 121.
`CCCCC(=O)N1c2c(C)cccc2C(Nc2ccccc2C)CC1C` (centres undefined) gave GIV-Gai inh 109.
`COc1ccc2ccc3c(c2c1)C=CC(c1ccccc1)(c1ccccc1)O3` gave GIV-Gai inh 118.
Screening COc1c(C)cnc(CN2CCn3c2nc(C)c(C)c3=O)c1C returned GIV-Gai inh 98.
For COC(=O)CN1C(=O)C2(OCCCO2)c2cc(C)ccc21 the results were GIV-Gai inh 101.
Screening C=CCn1c(SCC(=O)NC2CCCCC2C)nnc1-c1cc2ccccc2o1 (centres undefined) returned GIV-Gai inh 107.
Screening c1ccc(-c2ccc(-c3nc(-c4c5ccccc5cc5ccccc45)[nH]c3-c3ccc(-c4ccccc4)cc3)cc2)cc1 returned GIV-Gai inh 101.
`COc1ccc(OC)c(NC(=O)Cn2ncn3nc4c(c3c2=O)CCCC4)c1` gave GIV-Gai inh 104.
Screening CCOC(=O)C1=C(O)/C(=C/c2ccc(F)cc2)SC1=Nc1ccccc1 returned GIV-Gai inh 110.
For Cc1ccc(N=c2oc3ccc4ccccc4c3cc2-c2nc(-c3ccc(Br)cc3)cs2)cc1 the results were GIV-Gai inh 112.
CCN1CCCC1CNC(=O)c1nc(-c2ccc(S(=O)(=O)N(C)C)cc2)no1 (centres undefined) was read as GIV-Gai inh 102.
For CCC(C)(C)C1CCc2c(sc(NC(=O)c3c(-c4ccccc4Cl)noc3C)c2C#N)C1 (centres undefined) the results were GIV-Gai inh 107.
`COc1ccc(-n2ccc(=O)c(-c3nc(-c4ccc(OC(C)C)cc4)no3)n2)cc1` gave GIV-Gai inh 99.
`O=S(=O)(NC1c2cccc3cccc(c23)C1N1CCNCC1)c1ccccc1` (centres undefined) gave GIV-Gai inh 110.
For O=C1c2ccccc2NC2(C(=O)N(Cc3ccccc3F)c3ccccc32)N1c1cccc(C(F)(F)F)c1 (centres undefined) the results were GIV-Gai inh 106.
COc1cc([N+](=O)[O-])ccc1N1C(=O)C2C(c3ccc(C)cc3)OC3(C(=O)c4ccccc4C3=O)C2C1=O (centres undefined) was read as GIV-Gai inh 111.
`Cc1oc(-c2ccccc2)nc1Cn1c(=O)c2cccnc2n(-c2ccccc2)c1=O` gave GIV-Gai inh 105.
Screening Cc1cccc2sc(NC(=O)c3sc4ncn(CC(=O)N5CCOCC5)c(=O)c4c3C)nc12 returned GIV-Gai inh 103.
For CCc1cc(C2CCCN2C(=O)Nc2ccccc2Br)on1 (centres undefined) the results were GIV-Gai inh 100.
For CCOC(=O)C1=CN(Cc2ccc(OC)c(OC)c2)C=C(C(=O)OCC)C1c1cc(OC)c(OC)c(OC)c1 the results were GIV-Gai inh 105.
For CCC(=O)N1CCc2cc(CNS(=O)(=O)N(C)C)ccc21 the results were GIV-Gai inh 105.
For Cc1ccc(S(=O)(=O)N(CC(O)CN(CC(C)C)CC(C)C)c2ccccc2)cc1 (centres undefined) the results were GIV-Gai inh 107.
For CC1(C)CC(=O)C2=C(C1)c1c(ccc3ncccc13)NC2c1cccc(Br)c1 (centres undefined) the results were GIV-Gai inh 105.
CN(C)c1ccc(C2N(C(=O)c3ccccc3)CCN2C(=O)c2ccccc2)cc1 was read as GIV-Gai inh 106.
For COc1ccc(/C=C2\C=C(c3ccccc3)N(c3ccc(I)cc3)C2=O)cc1Br the results were GIV-Gai inh 110.
Screening O=C(Nc1ccc(Br)cc1)c1nc2nc(-c3ccc(F)cc3)cc(C(F)(F)F)n2n1 returned GIV-Gai inh 102.
`COc1ccccc1CNC(=O)c1ccc2c(=O)n(Cc3cccc(Br)c3)c(=S)[nH]c2c1` gave GIV-Gai inh 111.
NC(=O)NN=C1c2cc(S(=O)(=O)NCc3ccccc3)ccc2-c2ccc(S(=O)(=O)NCc3ccccc3)cc21 was read as GIV-Gai inh 121.
Screening CCc1c(C)sc(NC(=O)c2cc3n(n2)C(C(F)(F)F)CC(c2ccc(OC)c(OC)c2)N3)c1C#N (centres undefined) returned GIV-Gai inh 108.
For O=S(=O)(c1ccc(-c2cnc(C3CC3)o2)s1)N1CCN(c2ccccc2F)CC1 the results were GIV-Gai inh 106.
CCC1(C)CC(CCNCc2ccc(F)cc2)(c2ccc(F)cc2)CCO1 (centres undefined) was read as GIV-Gai inh 104.
`COc1ccccc1N1CCN(C(=O)c2sc3nc(C)nc(N4CCCCC4)c3c2C)CC1` gave GIV-Gai inh 106.
For CCN1CCCC1CNS(=O)(=O)c1ccc2c(c1)C(C)(C)CN2C(=O)C(C)C (centres undefined) the results were GIV-Gai inh 103.
`CCSc1nnc(NC(=O)CSc2nc3c(c(=O)n2-c2ccccc2OC)SCC3)s1` gave GIV-Gai inh 106.
`COc1ccccc1NC(=O)c1sc2nc(C)nc(N3CCOCC3)c2c1C` gave GIV-Gai inh 99.
O=C1/C(=C/c2ccc(Br)cc2)C=C(c2ccccc2)N1c1cccnc1 was read as GIV-Gai inh 116.
Cc1ccc(NC(=O)CSC2=C(C#N)C(c3ccc([N+](=O)[O-])cc3)CC(=O)N2)cc1Cl (centres undefined) was read as GIV-Gai inh 111.
For Cc1sc2ncn(CC(=O)NCC(=O)N3CCN(Cc4ccccc4)CC3)c(=O)c2c1C the results were GIV-Gai inh 108.
`Cc1nc(N(C)c2ccc(C(C)C)cc2)c2c(C)c(C(=O)NCCCN3CCOCC3)sc2n1` gave GIV-Gai inh 105.
For COC(=O)c1ccc(NC(=O)C2CC2(c2cccc(C)c2)c2cccc(C)c2)cc1 (centres undefined) the results were GIV-Gai inh 104.
`CC(=O)OC1CCC2(C=O)C3CCC4(C)CC(C5=CC(=O)OC5)CC4(O)C3CCC2(O)C1` (centres undefined) gave GIV-Gai inh 108.
Screening CCn1cc(S(=O)(=O)N2CCCn3nc(-c4cccc(OC)c4)cc3C2)cn1 returned GIV-Gai inh 95.
CCCCc1nc2ccccc2c(=O)n1NC(=O)c1c(O)c2ccccc2n(CC)c1=O was read as GIV-Gai inh 105.
Screening CC(=O)Nc1ccc(-c2noc(C3CCN(C(=O)c4cccc(NC(C)=O)c4C)CC3)n2)cc1 returned GIV-Gai inh 104.

Gathered by group, the entries above with two or more sulfur atoms
For O=C(C1CCN(S(=O)(=O)c2cc(-c3noc(C4CC4)n3)cs2)CC1)N1CCOCC1 the results were GIV-Gai inh 110.
Screening Cc1ccc(C2CCCCCN2S(=O)(=O)c2c(C)noc2C)s1 (centres undefined) returned GIV-Gai inh 100.
`CCOc1ccccc1NS(=O)(=O)c1cc(-c2nc(C)c(C)s2)sc1C` gave GIV-Gai inh 99.
Screening Cc1nc(CCNC(=O)[C@H]2CCCN2S(=O)(=O)c2ccc3c(c2)CCCC3)cs1 returned GIV-Gai inh 101.
`CCc1ccc(NS(=O)(=O)c2cccc3nsnc23)cc1` gave GIV-Gai inh 113.
For COc1ccc2c(c1)N(C)/C(=c1/s/c(=C3\SC(=S)N(C4CCCCC4)C3=O)n(C3CCCCC3)c1=O)S2 the results were GIV-Gai inh 103.
`COc1cc(Cl)c(NS(=O)(=O)c2cc(-c3cc(C(F)(F)F)[nH]n3)sc2C)c(OC)c1` gave GIV-Gai inh 97.
For Cc1csc(-c2cc(S(=O)(=O)N3CCN(CC(C)C)CC3)cn2CC(=O)N2CCCCC2)n1 the results were GIV-Gai inh 97.
Screening Cc1cccc2sc(NC(=O)c3sc4ncn(CC(=O)N5CCOCC5)c(=O)c4c3C)nc12 returned GIV-Gai inh 103.
NC(=O)NN=C1c2cc(S(=O)(=O)NCc3ccccc3)ccc2-c2ccc(S(=O)(=O)NCc3ccccc3)cc21 was read as GIV-Gai inh 121.
For O=S(=O)(c1ccc(-c2cnc(C3CC3)o2)s1)N1CCN(c2ccccc2F)CC1 the results were GIV-Gai inh 106.
`CCSc1nnc(NC(=O)CSc2nc3c(c(=O)n2-c2ccccc2OC)SCC3)s1` gave GIV-Gai inh 106.

Bioassay records from PubChem BioAssay.
